Compound activity from PubChem BioAssay.
DUX4 inh = blocks DUX4-driven transcriptional activation. 293T-iDUX4 ZSCAN4-Gaussia luciferase reporter, 24 h; hits give low values. activity change, negative = inhibition, % (no concentration beside the values). hit rate 0.8% among 37,000;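 active = -10% or lower and over 25 points stronger than a control reporter; inconclusive = -10% or lower with a smaller gap; inactive = above -10%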;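 also: 0% = median of neutral control wells and -100% = median of positive control wells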
DUX4 inh difference = further read-out of DUX4 inh, marked with its call; Gaussia minus Italica difference, %; measured here: selective DUX4 reporter inhibition;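 worked out from the two reporters; negative = selective loss of the DUX4 reporter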
DUX4 inh control = further read-out of DUX4 inh, marked with its call; activity change, negative = inhibition, %; measured here: Italica tet-on control reporter;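 0 = neutral control and -100 = positive control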
* hit, by the source's call; ? = inconclusive; · = not tested or not shown; & = joins results of further samples.

DUX4 inh	DUX4 inh difference	DUX4 inh control	structure
7.4	4.2	3.2	C[C@@H](NC(=O)C[C@@H]1C[C@H]2c3cc(NS(C)(=O)=O)ccc3O[C@H]2[C@@H](CO)O1)c1ccccc1
0.9	0.4	0.5	CO[C@H]1CN(C)C(=O)c2cc(NC(=O)Nc3c(C)noc3C)ccc2OC[C@@H](C)N(CC2CC2)C[C@H]1C
?	·	·	CO[C@@H]1CN(C)C(=O)c2ccc(NC(=O)Nc3cccc(Cl)c3)cc2OC[C@@H](C)NC[C@H]1C
-1.1	-1.9	0.8	Cc1noc(C)c1S(=O)(=O)N(C)C[C@@H]1Oc2ccc(NS(=O)(=O)c3cn(C)cn3)cc2CC(=O)N([C@H](C)CO)C[C@@H]1C
12.7	-0.3	13.1	COc1ccc2c3c([nH]c2c1)[C@@H](CO)N(C(=O)c1ccncc1)CC31CCN(C)CC1
27.6	21.8	5.8	COCC(=O)N1CCCCN2[C@@H](CO)[C@H](c3ccc(C#Cc4cccnc4)cc3)[C@@H]2C1
8.2	10.8	-2.5	COc1ccc2c3c(n(C)c2c1)[C@H](CO)NCC31CCN(Cc2ccccc2F)CC1
-5.3	-18.6	13.3	O=C(C[C@@H]1C[C@@H]2c3cc(NC(=O)c4ccc5c(c4)OCO5)ccc3O[C@@H]2[C@@H](CO)O1)NCc1cc(F)ccc1F
4.1	1.1	3.0	N#C[C@@H]1[C@H](c2ccc(C#Cc3ccccc3F)cc2)[C@H](CO)N1C(=O)C1CC1
-0.5	-1.0	0.5	CCC(=O)N(C)C[C@@H]1Oc2cc(-c3ccccc3C)ccc2S(=O)(=O)N([C@H](C)CO)C[C@H]1C
-0.1	-0.6	0.6	CCNC[C@@H]1[C@@H](c2ccccc2)[C@@H](CO)N1C(=O)Cc1ccccn1
?	·	·	O=C(C[C@@H]1C[C@H]2c3cc(NC(=O)Nc4ccccc4F)ccc3O[C@H]2[C@@H](CO)O1)NC1CCCCC1
1.0	-16.9	17.9	CCC(=O)N1CCCCN2[C@H](CO)[C@H](c3ccc(-c4cccnc4)cc3)[C@@H]2C1
12.7	13.2	-0.5	CO[C@H]1CN(C)C(=O)c2cc(NC(=O)c3cccc(F)c3)ccc2OC[C@@H](C)N(C)C[C@@H]1C
?	·	·	CC=Cc1ccc2n(c1=O)C[C@@H]1[C@@H](CO)[C@H](C(=O)N3CCC(Cc4ccccc4)CC3)N(C)[C@H]21 (mixture of isomers)
-1.8	-0.6	-1.2	Cc1noc(C)c1NC(=O)Nc1ccc2c(c1)C(=O)N(C)[C@H]1CC[C@H](CC(=O)NCc3ccc(Cl)cc3)O[C@H]1CO2
-3.1	-5.5	2.5	C[C@H]1CN([C@@H](C)CO)C(=O)Cc2cc(NC(=O)Cn3cnnn3)ccc2O[C@H]1CN(C)Cc1ccc(Oc2ccccc2)cc1
2.6	0.7	1.9	C[C@H](CO)N1C[C@H](C)[C@@H](CN(C)S(=O)(=O)c2cn(C)cn2)OCCCC[C@H](C)Oc2ccc(N(C)C)cc2C1=O
2.4	-7.3	9.7	C/C=C/c1ccc([C@@H]2[C@@H](CO)N(Cc3cccc(F)c3)C23CN(C(C)=O)C3)cc1
-2.3	-2.4	0.1	CCCNC(=O)N[C@@H]1CC[C@H](CC(=O)N2CCN(C)CC2)O[C@H]1CO

Part of the list above, with bars between the fields.
mol | DUX4 inh | DUX4 inh difference | DUX4 inh control
CCNC[C@@H]1[C@@H](c2ccccc2)[C@@H](CO)N1C(=O)Cc1ccccn1 | -0.1 | -0.6 | 0.6
CC=Cc1ccc2n(c1=O)C[C@@H]1[C@@H](CO)[C@H](C(=O)N3CCC(Cc4ccccc4)CC3)N(C)[C@H]21 (mixture of isomers) | ? | · | ·

Additional records follow:
DUX4 inh	DUX4 inh difference	DUX4 inh control	structure
9.7	-3.8	13.5	COc1ccc2c3c(n(C)c2c1)[C@H](CO)N(C(C)=O)CC31CCN(C(=O)C2CCOCC2)CC1
4.9	-1.9	6.7	CN(C)C(=O)C[C@@H]1C[C@@H]2c3cc(NC(=O)CC4CC4)ccc3O[C@@H]2[C@H](CO)O1
-1.5	1.7	-3.2	CCNC(=O)c1cc2c(c(-c3cccc(-c4ccccc4F)c3)n1)[C@@H](CCO)N(C(=O)CC1CC1)C2
?	·	·	CCC(=O)N1CCCCN2[C@H](CO)[C@H](c3ccc(/C=C/c4ccccc4)cc3)[C@@H]2C1
-2.8	-5.4	2.6	Cc1ccc(S(=O)(=O)N(C)C[C@H]2Oc3ccc(NC(=O)Nc4ccc(C(F)(F)F)cc4)cc3CC(=O)N([C@@H](C)CO)C[C@@H]2C)cc1
?	·	·	O=C(C[C@H]1CC[C@@H]2[C@H](COC[C@@H](O)CN2Cc2nccs2)O1)NCc1ccc(-c2ccccc2)cc1
1.0	15.7	-14.7	COc1ccc2c3c(n(C)c2c1)[C@H](CO)N(C(=O)Nc1ccccc1F)CC31CN(C)C1
2.6	1.0	1.5	CN(C)C(=O)C[C@H]1CC[C@H]2[C@@H](COC[C@H](O)CN2S(=O)(=O)c2ccccc2)O1
1.2	-1.1	2.4	C/C=C/c1cccc(-c2nc(C(=O)NC3CCC3)cc3c2[C@H](CCO)N([S@@](=O)C(C)(C)C)C3)c1
1.4	-4.4	5.8	O=C(CC(F)(F)F)N1C[C@H]2[C@@H](c3ccccc31)[C@H](CO)N2C(=O)Cc1ccccc1
11.9	8.9	3.0	O=C([C@@H]1[C@@H](CO)[C@@H]2Cn3c(ccc(C4=CCCC4)c3=O)[C@H]1N2C(=O)c1ccncc1)N1CCOCC1
-6.7	2.3	-9.0	O=C(c1ccc(F)cc1)N1CC(=O)N2[C@H](CO)[C@@H](c3ccc(C#CC4CCCCC4)cc3)[C@@H]2C1
3.2	3.7	-0.5	C[C@H]1CN([C@@H](C)CO)C(=O)CCCn2cc(nn2)CO[C@H]1CN(C)Cc1cccc(C(=O)O)c1
4.2	0.1	4.0	O=C(c1ccc(F)cc1)N1[C@H](CO)[C@H]2c3ccccc3NC[C@H]21
2.7	-0.4	3.1	CN(C)C(=O)C[C@@H]1C[C@H]2c3cc(NC(=O)NC4CCCC4)ccc3O[C@H]2[C@@H](CO)O1
0.2	8.0	-7.8	O=C(Nc1ccccc1F)N1C[C@@H]2[C@H](c3ccccc31)[C@H](CO)N2C(=O)c1ccc(F)cc1
2.2	0.8	1.4	O=C(C[C@H]1C=C[C@@H](NC(=O)CCN2CCCCC2)[C@H](CO)O1)Nc1nccs1
1.6	-0.6	2.2	CS(=O)(=O)N1CCCCN2[C@H](CO)[C@@H](c3ccc(C4=CCCC4)cc3)[C@H]2C1
?	·	·	O=C(C[C@H]1CC[C@@H]2[C@H](COC[C@H](O)CN2Cc2nccs2)O1)NCc1ccc(-c2ccccc2)cc1
2.0	1.7	0.3	O=C(C[C@@H]1CC[C@@H]2[C@H](COC[C@@H](O)CN2Cc2cc(F)cc(F)c2)O1)NC1CCCC1
4.1	-4.0	8.0	Cn1cnc(S(=O)(=O)N2CCCCN3[C@H](CO)[C@@H](c4ccc(-c5cccc(F)c5)cc4)[C@H]3C2)c1
?	·	·	CN1[C@@H]2Cn3c(ccc(-c4ccccc4)c3=O)[C@H]1[C@@H](C(=O)N1CCC(Cc3ccccc3)CC1)[C@@H]2CO
-2.1	-0.2	-1.9	COc1ccc(NC(=O)N2C[C@@H]3[C@H](c4ccccc42)[C@H](CO)N3Cc2ccccn2)cc1
-4.2	-3.3	-0.9	COc1ccc2c3c(n(C)c2c1)[C@@H](CO)N(Cc1cccc(F)c1)CC31CN(C)C1
-1.3	-3.1	1.9	C[C@H](O)C#Cc1ccc2c(c1)O[C@@H](CN(C)C(=O)Cc1ccccn1)[C@@H](C)CN([C@H](C)CO)S2(=O)=O
-6.7	-7.0	0.4	C[C@H](NC(=O)C[C@@H]1CC[C@@H]2[C@H](COC[C@H](O)CN2C(=O)Nc2cccc(F)c2)O1)c1ccccc1
18.4&18.6	17.5&14.8	0.9&3.8	C/C=C/c1ccc(C2[C@H]3CNC[C@@H]2N3S(=O)(=O)c2cccc(F)c2)cc1 (stereo partly specified)
4.1	3.9	0.2	C/C=C/c1ccc([C@H]2[C@@H](CO)N(C(=O)CN(C)C)C23CN(C(=O)C2CCCCC2)C3)cc1
5.5	-2.2	7.6	N#C[C@H]1[C@H](c2ccccc2-c2ccccc2)[C@@H](CO)N1C(=O)Cc1cccnc1
-0.7	-3.6	2.9	C[C@@H](NC(=O)C[C@@H]1CC[C@H]2[C@H](COc3ccc(NS(=O)(=O)c4ccc(Cl)cc4)cc3C(=O)N2C)O1)c1ccccc1
-3.0	1.2	-4.1	COc1cccc(CN(C)C[C@H]2OCc3ccccc3-c3ccccc3C(=O)N([C@H](C)CO)C[C@@H]2C)c1
-6.2	-14.0	7.8	COCCNC(=O)C[C@@H]1CC[C@H]2[C@@H](COC[C@H](O)CN2C(=O)Nc2ccc3c(c2)OCO3)O1
6.2	10.7	-4.5	O=C(C[C@H]1C[C@@H]2c3cc(NC(=O)c4cccnc4)ccc3O[C@@H]2[C@@H](CO)O1)NCc1ccccn1
22.8	10.1	12.7	CCC(=O)N1CCCCN2[C@H](CO)[C@@H](c3ccc(-c4cccc(C#N)c4)cc3)[C@@H]2C1
-4.1	11.0	-15.1	COc1ccc(-c2ccc3c(c2)[C@@H]2[C@@H](CCN2C(=O)c2cccc(F)c2)[C@H](CO)N3)cc1
-0.8	-1.1	0.3	CCCN(C[C@H]1N[C@H](CO)[C@@H]1c1ccc(-c2cccnc2)cc1)C(C)=O
8.3	10.0	-1.7	O=C(C[C@H]1CC[C@@H]2[C@H](COC[C@@H](O)CN2C(=O)c2ccccc2F)O1)NCc1ccc(F)cc1
-3.7	1.3	-5.0	C[C@H]1CN([C@@H](C)CO)S(=O)(=O)c2ccc(-c3ccc(C#N)cc3)cc2O[C@@H]1CN(C)C(=O)C1CC1
?	·	·	O=C(c1cccc(F)c1)N1CCCCN2[C@H](CO)[C@H](c3ccc(C#CC4(O)CCCC4)cc3)[C@@H]2C1
-3.4	-0.5	-2.9	CN(C)CC(=O)N1[C@H](CO)[C@@H](c2ccccc2)C12CN(C(=O)C1CCCC1)C2

An excerpt from above in order of the DUX4 inh value, largest number first:
DUX4 inh	DUX4 inh difference	DUX4 inh control	structure
8.3	10.0	-1.7	O=C(C[C@H]1CC[C@@H]2[C@H](COC[C@@H](O)CN2C(=O)c2ccccc2F)O1)NCc1ccc(F)cc1
5.5	-2.2	7.6	N#C[C@H]1[C@H](c2ccccc2-c2ccccc2)[C@@H](CO)N1C(=O)Cc1cccnc1
-4.2	-3.3	-0.9	COc1ccc2c3c(n(C)c2c1)[C@@H](CO)N(Cc1cccc(F)c1)CC31CN(C)C1

(continued)
DUX4 inh	DUX4 inh difference	DUX4 inh control	structure
-7.1	-10.0	2.9	CCCC(=O)Nc1ccc2c(c1)C(=O)N(C)C[C@H](OC)[C@H](C)CN(CCC(F)(F)F)[C@@H](C)CO2
9.9	8.1	1.9	COC(=O)C[C@H]1C[C@@H]2c3cc(NC(=O)c4cccnc4)ccc3O[C@@H]2[C@H](CO)O1
8.5	5.7	2.9	O=C(C[C@@H]1CC[C@@H]2[C@H](COC[C@@H](O)CN2CCC(F)(F)F)O1)NCC1CC1
-4.8	-8.4	3.5	CO[C@H]1CC[C@H]2CCN(C)C(=O)[C@@H](C)[C@@H](OC)CN(C)C(=O)c3cccc(C#N)c3OC[C@@H]1O2
?	·	·	COc1ccc(S(=O)(=O)N2CC[C@@H]3[C@H](CO)Nc4ccc(-c5ccc(C#N)cc5)cc4[C@@H]32)cc1
-4.2	-6.7	2.5	Cn1cnc(S(=O)(=O)N2CC[C@@H]3[C@@H](CO)Nc4ccc(-c5cccc(F)c5)cc4[C@@H]32)c1
-2.9	0.7	-3.5	CCCNC(=O)[C@H]1[C@H](CO)[C@H]2Cn3c(ccc(/C=C/c4ccccc4)c3=O)[C@@H]1N2C(C)=O
?	·	·	COc1ccc2c3c(n(C)c2c1)[C@H](CO)N(Cc1ccccc1Cl)CC31CCN(C(=O)CC2CC2)CC1
-1.3	1.3	-2.6	COc1ccc(CNC(=O)C[C@H]2CC[C@@H]3[C@@H](COc4ccc(NC(=O)C5CC5)cc4C(=O)N3C)O2)cc1
34.3	13.1	21.1	COCC#Cc1ccc([C@H]2[C@H]3CN(C(=O)CN(C)C)CCCCN3[C@H]2CO)cc1
-2.4	-0.7	-1.7	C[C@@H]1CCCCO[C@H](CN(C)S(=O)(=O)c2cn(C)cn2)[C@@H](C)CN([C@H](C)CO)C(=O)c2cc(NS(=O)(=O)c3cccs3)ccc2O1
1.9	2.9	-1.0	Cc1ccc(-c2ccccc2[C@H]2[C@@H](CO)N(C(=O)Cc3cccnc3)[C@H]2C#N)cc1
3.1	-0.7	3.8	Cc1ccc(S(=O)(=O)NCC[C@H]2CC[C@H](NS(=O)(=O)c3ccccc3Cl)[C@@H](CO)O2)cc1
-4.9	-6.0	1.2	CCc1csc(N2[C@@H](C#N)[C@@H](c3ccc(C#Cc4ccc(F)cc4)cc3)[C@@H]2CO)n1
3.6	-2.1	5.7	C[C@@H]1CN([C@H](C)CO)S(=O)(=O)c2ccc(C#CC(C)(C)O)cc2O[C@H]1CN(C)Cc1ccc(F)cc1
4.8	2.0	2.7	CCC(=O)N[C@H]1C=C[C@H](CC(=O)NCc2cc(F)cc(F)c2)O[C@@H]1CO
6.0	-5.1	11.1	Cn1cnc(S(=O)(=O)N2C[C@@H](O)COC[C@H]3O[C@@H](CC(=O)NCc4cccc(F)c4)CC[C@@H]32)c1
?	·	·	O=C(C1CCC1)N1[C@@H](CO)[C@@H](c2ccccc2)C12CN(Cc1ccccc1)C2
-3.9	-1.4	-2.5	O=C(C1CCOCC1)N1C[C@H]2[C@@H](c3ccccc31)[C@@H](CO)N2C(=O)Nc1ccccc1F
13.0	11.4	1.6	N#C[C@H]1[C@@H](c2ccccc2-c2cccc(F)c2)[C@@H](CO)N1C(=O)c1cccnc1

Some of the compounds tested; the hit share may differ from the screen's.
